# BJeLR viability = BJeLR cell viability reduction. AID 2275. viability loss activity score, % (concentration not given with the values). BJeLR fibroblasts viability, CellTiterGlo ATP luminescence, 48 h; HRASV12, hTERT and SV40 LT/ST transformed. 30,000 compounds, 0.64% hits; in the data active = viability loss activity score above about 50%; about a fifth of its hits are not listed in these tables;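 also: higher score means fewer live cells and less ATP luminescence; stock transfer was 50 or 100 nL into about 30 µL; 0% = vehicle wells and 100% = a reference killing control; one replicate is shown; the record names a cut of 85%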
# A1 inhib = blocks A1 activity. MEF A1-2A-BIM cells, caspase-Glo luminescence, 3 h; percent of clofoctol signal, DMSO as zero. caspase activation, % (concentration not given with the values). 21,000 compounds, 0.51% hits. AID 2241;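 active = most replicate scores above 10, or exactly half above 10 with mean activity above 10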;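 also: effector caspase 3 and 7 activity cleaving a DEVD luciferin substrate; 50 nL library stock added to about 30 µL; numbers are from one replicate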
# Starred values were filed as active, the others as inactive; . = no result given.
SMILES,BJeLR viability,A1 inhib
CCOC(=O)OC(C)OC(=O)[C@@H]1N2C(=O)[C@@H](NC(=O)[C@H](N)c3ccccc3)[C@H]2SC1(C)C (stereo partly specified),-2.6,0.2
C[C@@H]1CN([C@@H](C)CO)C(=O)c2cccc(NC(=O)Nc3ccc4c(c3)OCO4)c2O[C@H]1CN(C)C(=O)Nc1ccc2c(c1)OCO2,-2.5,.
C[C@@H]1CN([C@@H](C)CO)C(=O)c2cc(NC(=O)Cc3ccccc3)ccc2O[C@H]1CN(C)C,0.6,0.4
C[C@H]1CN([C@@H](C)CO)C(=O)c2cc(NS(=O)(=O)c3cn(C)cn3)ccc2O[C@@H]1CN(C)S(=O)(=O)c1ccc(Cl)cc1,-4.8,0.7
COCc1cc(=O)[nH]c(/N=C(\N)Nc2ccccc2)n1,-2.6,1.1
Cc1ccc(S(=O)(=O)Nc2cccc3c2O[C@@H](CN(C)S(=O)(=O)c2ccccc2)[C@H](C)CN([C@@H](C)CO)C3=O)cc1,1.1,.
CC1CCCC(NC(=O)CNC(=S)N(Cc2ccc(F)cc2)C2CCCCC2)C1C (stereo unspecified),2.7,0.6
CCC(=O)N(C(=O)CC)c1cc2oc3ccccc3c2cc1OC,-1.8,0.4
C[C@@H]1CN([C@@H](C)CO)C(=O)c2cc(NC(=O)Nc3ccc(F)cc3)ccc2O[C@H]1CN(C)C(=O)NC1CCCCC1,1.9,-0.5
O=C(/C=C/c1c[nH]c2ccccc12)N1CCCCC1,0.1,-0.2
C[C@@H]1CN([C@H](C)CO)C(=O)c2cc(NS(=O)(=O)c3ccccc3)ccc2O[C@H]1CN(C)CC1CC1,-1.1,0.2
C[C@H]1CN([C@@H](C)CO)C(=O)c2cc(NC(=O)CCC(F)(F)F)ccc2O[C@H]1CN(C)S(=O)(=O)c1ccc(F)cc1,-5.1,-0.4
FC(F)(F)c1nc2ccc(Cl)cc2[nH]1,29,-1.2
CN(C(=O)c1oc(=O)c2ccccc2c1-c1ccccc1)c1ccccc1,-2.3,.
C[C@H]1CN([C@@H](C)CO)C(=O)c2cc(NS(C)(=O)=O)ccc2O[C@@H]1CN(C)Cc1ccncc1,5.0,-0.1
O=C(NCCc1ccccc1)c1ccc(CS(=O)(=O)Cc2ccccc2F)o1,4.3,0.2
COc1ccc2c(c1)O[C@@H]1COc3cc(OC)c(OC)cc3[C@@H]1C2=O,17,-0.5
C[C@H]1CN([C@@H](C)CO)C(=O)c2cc(NC(=O)Cc3cn(C)c4ccccc34)ccc2O[C@H]1CN(C)S(=O)(=O)c1ccc(Cl)cc1,-1.5,0.1
CNC[C@@H]1Oc2c(NC(=O)C3CC3)cccc2C(=O)N([C@@H](C)CO)C[C@H]1C,-2.3,.
COC(=O)Cc1c(/C(Cl)=C/C(=O)O)oc2cc(C)cc(O)c2c1=O,-5.3,-0.7
CC(C)CC(C(=O)c1ccccc1)c1ccccc1 (stereo unspecified),-5.9,-0.9
O=C1CCCCCN1CP(=O)(O)CN1CCCCC1,-1.8,1.4
C[C@@H]1CN([C@H](C)CO)C(=O)c2cc(NC(=O)Nc3ccc(F)cc3)ccc2O[C@H]1CN(C)CC1CCCCC1,0.0,-0.5
COc1ccc(NC(=O)Nc2ccc3c(c2)C(=O)N([C@H](C)CO)C[C@@H](C)[C@@H](CN(C)S(=O)(=O)c2ccc(C)cc2)O3)cc1,8.8,-1.1
COC(=O)c1ccccc1NC(=O)NC1CCCCC1,3.7,-2.4

# A second format for some results above:
> C[C@@H]1CN([C@@H](C)CO)C(=O)c2cc(NC(=O)Nc3ccc(F)cc3)ccc2O[C@H]1CN(C)C(=O)NC1CCCCC1
  BJeLR viability: 1.9	A1 inhib: -0.5
> O=C(/C=C/c1c[nH]c2ccccc12)N1CCCCC1
  BJeLR viability: 0.1	A1 inhib: -0.2
> C[C@@H]1CN([C@H](C)CO)C(=O)c2cc(NS(=O)(=O)c3ccccc3)ccc2O[C@H]1CN(C)CC1CC1
  BJeLR viability: -1.1	A1 inhib: 0.2

# Next structures:
SMILES,BJeLR viability,A1 inhib
C[C@H]1CN([C@@H](C)CO)C(=O)c2cccc(NC(=O)c3cnccn3)c2O[C@@H]1CN(C)Cc1ccc(-c2ccccc2)cc1,-10,.
C[C@H]1CN([C@@H](C)CO)C(=O)c2cc(NC(=O)Nc3ccccc3)ccc2O[C@@H]1CN(C)S(=O)(=O)c1cccs1,-0.1,-0.1
CCC(C)CCCCCCCCC1CC(=O)NC(CCC(N)=O)C(=O)NC(CC(C)C)C(=O)NC(CC(C)C)C(=O)NC(C(C)C)C(=O)NC(CC(=O)O)C(=O)NC(CC(C)C)C(=O)NC(C(C)C)C(=O)O1 (stereo unspecified),-2.8,-0.3
C/C=C(/C)C(=O)O[C@@H](C)[C@@](C)(O)C(=O)O[C@H](C)[C@@H](OC(=O)/C(C)=C\C)c1cc(OC)c2c(c1)OCO2,2.3,3.7
CCOC(=O)c1c(C)n(-c2ccc(OC)cc2)c2ccc(OC)cc12,-2.6,-0.2
CC(=O)N1/C(=C/c2ccc(N(C)C)cc2)C(=O)c2ccccc21,34,3.0
S=C(Nc1ccccc1)N1CCC(c2ccccc2)=N1,-3.6,0.0
C[C@H]1CN([C@@H](C)CO)C(=O)c2cc(NC(=O)Cn3cnnn3)ccc2O[C@H]1CN(C)CC1CCCCC1,-6.1,-0.3
C[C@H](CO)N1C[C@H](C)[C@H](CN(C)Cc2ccc(C(=O)Nc3ccccc3N)cc2)Oc2ccc(NS(=O)(=O)c3ccc(Cl)cc3)cc2C1=O,2.9,.
COc1cc(OC)nc(NCC(NC(=O)c2ccccc2)C(N)=O)n1 (stereo unspecified),1.0,-0.5
CCOC(=O)c1c(NC(=O)c2ccn(CC)n2)sc2c1CCC2,-2.8,.
COc1ccc(NC(=O)Nc2cccc3c2O[C@H](CN(C)C(=O)Nc2ccc(C(F)(F)F)cc2)[C@@H](C)CN([C@H](C)CO)C3=O)cc1,-0.7,.
CCC(=O)N1c2ccccc2NC2=C(C(=O)CC(c3ccccc3)C2)C1c1ccccc1 (stereo unspecified),2.8,0.4
CCn1nc(C)c(Br)c1-c1nc(-c2ccccc2)no1,-1.9,0.1
C=C(C)Cn1c(-c2ccccc2)nc2ccccc21,3.0,1.3
Cc1ccc(C(=O)Cn2c(C)csc2=Nc2ccccc2)cc1,2.0,-0.3
O=C(C1CC(=O)N(c2ccc(OCc3ccccc3Cl)cc2)C1)N1CCOCC1 (stereo unspecified),7.8,0.3
C[C@H](CO)N1C[C@H](C)[C@@H](CN(C)Cc2ccc(C(=O)O)cc2)Oc2ccc(NC(=O)CCN3CCOCC3)cc2C1=O,-2.5,-0.5
COc1ccc(CN(C)C[C@H]2Oc3c(NC(=O)c4cc(C)nn4C)cccc3C(=O)N([C@H](C)CO)C[C@@H]2C)cc1,-1.1,.
O=C(CCOc1ccccc1)Nc1nc2c(ccc3ccccc32)s1,-1.2,0.4
COc1ccc(CCN=C2CCc3ccccc3N2)cc1OC,-0.2,0.3
COc1ccc(NCC(C#N)C(=O)NCc2ccc(Cl)cc2)cc1 (stereo unspecified),-5.0,0.6
C[C@H]1CN([C@@H](C)CO)C(=O)c2cccc(NC(=O)C3CCOCC3)c2O[C@H]1CN(C)S(=O)(=O)c1cn(C)cn1,-2.8,.
COc1ccc(NC(=O)N(C)C[C@@H]2Oc3ccc(NC(=O)c4ccncc4)cc3C(=O)N([C@H](C)CO)C[C@@H]2C)cc1,-2.9,0.3
CC(C)NC(=O)Nc1ccc2c(c1)C(=O)N([C@@H](C)CO)C[C@H](C)[C@H](CN(C)C(=O)Nc1ccc(C(F)(F)F)cc1)O2,1.4,0.1
# Next section:
SMILES,BJeLR viability,A1 inhib
CNC[C@@H]1Oc2c(NC(=O)NC(C)C)cccc2C(=O)N([C@@H](C)CO)C[C@H]1C,-2.1,.
C[C@@H]1CN([C@H](C)CO)C(=O)c2cccc(NC(=O)c3cnccn3)c2O[C@@H]1CN(C)Cc1ccc(C(=O)O)cc1,1.9,.
Cc1ccc(S(=O)(=O)Nc2ccc3c(c2)C(=O)N([C@@H](C)CO)C[C@H](C)[C@H](CN(C)C(=O)NC2CCCCC2)O3)cc1,-2.7,-0.2
C[C@H]1CN([C@@H](C)CO)C(=O)c2cc(NC(=O)Cc3cn(C)c4ccccc34)ccc2O[C@@H]1CN(C)S(=O)(=O)c1cccs1,0.5,-0.5
Cc1noc(C)c1NC(=O)N(C)C[C@@H]1Oc2ccc(N(C)C)cc2C(=O)N([C@H](C)CO)C[C@H]1C,-0.7,1.2
C[C@H](CO)N1C[C@H](C)[C@@H](CN(C)Cc2ccc(C(F)(F)F)cc2)Oc2c(NC(=O)Nc3ccc(C(F)(F)F)cc3)cccc2C1=O,3.5,.
C[C@@H]1CN([C@@H](C)CO)C(=O)c2cccc(NC(=O)c3ccc(-c4nccs4)cc3)c2O[C@@H]1CN(C)C(=O)Nc1ccc2c(c1)OCO2,-0.7,.
COc1ccc(CN(C)C[C@@H]2Oc3c(NC(=O)Nc4ccc(OC)cc4)cccc3C(=O)N([C@H](C)CO)C[C@@H]2C)cc1,-5.0,.
C[C@H]1CN([C@@H](C)CO)C(=O)c2cc(NC(=O)Cc3cn(C)c4ccccc34)ccc2O[C@H]1CN(C)S(=O)(=O)c1ccccc1,0.7,0.6
Cc1nc(SC(C(=O)c2ccccc2)c2ccccc2)nc2ccccc12 (stereo unspecified),2.1,-0.9
Cc1ccc(-c2cc(=O)[nH]c3ccccc23)cc1,2.7,-0.3
COc1ccc(S(=O)(=O)N(C)C[C@H]2Oc3c(NC(=O)Nc4c(C)noc4C)cccc3C(=O)N([C@@H](C)CO)C[C@@H]2C)cc1,3.6,.
C[C@@H]1CN([C@@H](C)CO)C(=O)c2cc(NS(=O)(=O)c3ccccc3)ccc2O[C@H]1CN(C)C(=O)Nc1ccc(C(F)(F)F)cc1,6.0,-0.4
CC(C)NC(=O)N(C)C[C@H]1Oc2c(NC(=O)c3nc4ccccc4s3)cccc2C(=O)N([C@H](C)CO)C[C@H]1C,-4.6,.
CCN(CC)c1ncc2c(NCc3ccccc3)nc(SCc3ccccc3)nc2n1,0.2,-1.2
Cc1cc(NS(=O)(=O)c2ccc(F)c(Cl)c2)no1,4.4,1.1
C=CC(C)(C)[C@@]12C[C@H]3C(=O)N[C@H]([C@@H](C)CC)C(=O)N3[C@@H]1Nc1ccccc12,-15,-0.6
C[C@@H]1CN([C@@H](C)CO)C(=O)c2cccc(NC(=O)C3CCCCC3)c2O[C@H]1CN(C)Cc1ccc(Cl)c(Cl)c1,-1.8,.
C[C@@H]1CN([C@@H](C)CO)C(=O)c2cccc(NC(=O)c3ccncc3)c2O[C@H]1CN(C)Cc1ccc(C(=O)O)cc1,9.8,.
C[C@@H]1CN([C@H](C)CO)C(=O)c2cccc(N(C)C)c2O[C@H]1CN(C)Cc1ccncc1,-6.4,.
CNC[C@H]1Oc2ccc(NC(=O)c3ccncc3)cc2C(=O)N([C@H](C)CO)C[C@@H]1C,2.0,0.1
CCOc1ccccc1C(=O)N(CC#N)CC#N,0.9,1.8
Cc1cc(C)c(COc2ccc3c(c2C)OC(C)(C)CC3=O)c(C)c1,-3.6,0.8
Cc1noc(C)c1S(=O)(=O)Nc1cccc2c1O[C@@H](CN(C)S(=O)(=O)c1cn(C)cn1)[C@@H](C)CN([C@@H](C)CO)C2=O,1.0,.
COc1ccc(CN(CCC(c2ccccc2)c2ccco2)C(C)=O)cc1 (stereo unspecified),7.2,-0.3

# Retrieved one by one from above (2):
SMILES,BJeLR viability,A1 inhib
CCN(CC)c1ncc2c(NCc3ccccc3)nc(SCc3ccccc3)nc2n1,0.2,-1.2
CNC[C@@H]1Oc2c(NC(=O)NC(C)C)cccc2C(=O)N([C@@H](C)CO)C[C@H]1C,-2.1,.

# Sorted by SMILES length (lowest first): some entries from above.
SMILES,BJeLR viability,A1 inhib
Cc1cc(C)c(COc2ccc3c(c2C)OC(C)(C)CC3=O)c(C)c1,-3.6,0.8
Cc1noc(C)c1NC(=O)N(C)C[C@@H]1Oc2ccc(N(C)C)cc2C(=O)N([C@H](C)CO)C[C@H]1C,-0.7,1.2
C[C@@H]1CN([C@@H](C)CO)C(=O)c2cccc(NC(=O)c3ccc(-c4nccs4)cc3)c2O[C@@H]1CN(C)C(=O)Nc1ccc2c(c1)OCO2,-0.7,.

# (further entries)
SMILES,BJeLR viability,A1 inhib
Cn1cccc1Cc1nnc(SCC(=O)N2CCCc3ccccc32)n1-c1ccc(F)cc1,-2.4,0.3
O=C(Cc1ccccc1)Nc1ccc(NC(=O)c2cccs2)cc1,-8.4,0.1
N#CC1CN(CCc2ccccc2)CN(CCc2ccccc2)C1,-6.0,-0.1
COc1nc(NC(C)(C)C)nc(Oc2ccc(=O)n(C)n2)n1,7.2,-0.1
COc1ccc(S(=O)(=O)Nc2cccc3c2O[C@@H](CN(C)C(=O)Nc2ccc4c(c2)OCO4)[C@H](C)CN([C@@H](C)CO)C3=O)cc1,-2.1,.
C[C@@H]1CN([C@H](C)CO)C(=O)c2cc(NC(=O)Cc3ccccc3)ccc2O[C@@H]1CN(C)CC1CCCCC1,-4.7,0.9
C=CCn1c(-c2cccc(C)c2)nc2ccccc21,0.2,-2.6
CCSc1nnc(NC(=O)CCC(=O)OC2CCC(C)C(C)C2)s1 (stereo unspecified),2.7,-0.5
CS(=O)(=O)NCc1cccc2ccccc12,1.6,0.6
NNC(=O)c1ccc(Oc2cc(Cl)cc(Cl)c2)o1,6.5,0.2
C[C@@H]1CN([C@H](C)CO)C(=O)c2cccc(NC(=O)Nc3ccccc3)c2O[C@@H]1CN(C)Cc1ccc(Oc2ccccc2)cc1,6.4,.
CCS(=O)(=O)Nc1cccc(C(=O)CC2(O)C(=O)Nc3ccccc32)c1 (stereo unspecified),-4.9,0.0
Ic1ccc(Nc2nc(Nc3ccccc3)nc(N3CCOCC3)n2)cc1,-9.4,2.6
CCOC(=O)c1ccc(NC(=O)c2cccc3c2C(=O)N(Cc2cccnc2)C3)cc1,-1.4,.

# Assay outcomes as filed in PubChem.

# Some of the compounds tested; count on the stated rates, not on these rows.
